MT1-MMP promoter: MT1-MMP gene expression reporter suppression – cell-based, luciferase reporter, luminescence (AID 618). calls from a first round at 10 µM; hits with a dose series show EC50 in µM. 0.62% of 87,000 active. MT1-MMP promoter luciferase reporter cells, luminescence;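 active = over half of the reporter light lost at 10 µM or EC50 under 50 µM; inactive = the rest and hits that failed the dose series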;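 also: actives suppress MT1-MMP promoter-driven transcription so potencies describe inhibitors; HT1080 fibrosarcoma cells; overnight exposure; toxic or luciferase-blocking compounds were not removed from the actives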
Hsc70: small molecules displacing fluorescent ligand from Hsc70 – biochemical, fluorescence polarization, primary screen (AID 568); Hsc70 fluorescence polarization, probe displacement; higher % means a stronger effect; strong numbers were not always called active; displacement, % at 20 µM, or IC50 in µM where a hit was titrated; 83,000 tested, under 10 active;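 active = displacement above 50% without optical interference and an IC50 on retest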;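 also: ATPase domain with a fluorescein-tagged ATP probe; 0% = vehicle and 100% = excess ADP; read after one hour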
WNV protease inh: inhibitors of West Nile virus NS2B-NS3 protease. P06935. WNV NS2B-NS3 protease, fluorogenic substrate Ex360/Em465; hits give low values. z-score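 (tested at a level between 10 and 100 µM)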. 0.18% of 65,000 active. AID 577;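 active = z-score at -3 or under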;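 also: score is relative to mean and spread of the compound wells of a plate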
Target sequence (P06935 1371-1501 limits assumed): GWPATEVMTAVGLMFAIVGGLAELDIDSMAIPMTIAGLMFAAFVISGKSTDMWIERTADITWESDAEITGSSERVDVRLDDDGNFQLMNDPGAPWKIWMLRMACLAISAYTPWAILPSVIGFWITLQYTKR
Target sequence (P06935 1502-1679 limits assumed): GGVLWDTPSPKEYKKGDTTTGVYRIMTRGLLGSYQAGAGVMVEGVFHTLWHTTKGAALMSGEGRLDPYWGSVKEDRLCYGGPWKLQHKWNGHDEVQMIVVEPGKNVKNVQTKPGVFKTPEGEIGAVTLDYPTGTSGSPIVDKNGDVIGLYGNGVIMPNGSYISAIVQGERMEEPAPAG
The depositor's hits bear a star; i = inactive; . = no result given. Random draw from the library. About 0.77% of those tested had a hit in this group.

SMILES | MT1-MMP promoter | Hsc70 | WNV protease inh
O=C(c1ccccc1S(=O)(=O)NCc1ccccc1)N1CCCC1 | i | -1.2% | -0.56
COc1ccc2c(CC(=O)N3CCc4ccccc43)coc2c1 | i | -2.1% | .
COc1cccc(C(=O)NCc2n[nH]c(=S)n2-c2cccc(C)c2)c1 | i | 3.0% | 0.77
O=C1CC(c2ccc(Cl)cc2)n2nc(N3C(=O)c4ccccc4C3=O)nc2N1 (stereo unspecified) | i | -4.0% | -0.27
Cc1c(F)cccc1NC(=O)CCC(=O)O | i | 5.0% | -0.77
Cc1ccccc1-c1cc(-c2ccccc2O)n[nH]1 | i | 6.9% | 1.22
CCOC(=O)c1ccc(N=CC2=C(O)CC(c3ccco3)CC2=O)cc1 (stereo unspecified) | i | -1.7% | -0.26
CCN1C(=O)C(O)(CC(=O)c2ccccn2)c2ccccc21 (stereo unspecified) | i | -0.4% | .
COc1cccc(C(c2sc3nc(C)nn3c2O)N2CCC3(CC2)OCCO3)c1 (stereo unspecified) | i | 0.1% | -0.6
COc1cccc(N2C(=O)C3CC=C(Cl)CC3C2=O)c1 (stereo unspecified) | i | 9.0% | -0.85
O=C(Cc1c(O)c2ccccc2[nH]c1=O)NCc1ccc(F)cc1 | i | 0.1% | 1.32
CCOc1ccc2[nH]c(O)c(NC(C)=O)c2c1 | i | 0.3% | 0.26
CCCCn1c(SCC(=O)Nc2cc(NC(=O)c3ccco3)ccc2C)nc2ccccc2c1=O | i | -27.2% | -0.8
CCCCNC(=O)c1ccc2c(c1)ncn2C1CCCCC1 | i | -4.6% | -1.24
CCn1c(SCC(=O)n2c(C)c(C)c3ccccc32)nnc1-c1ccco1 | i | -0.1% | 0.56
CCCc1nc(N)c(C#N)c(N)c1C#N | i | -3.3% | 0.16
N#CC1=C(SCC(=O)NCc2ccccc2)NC(=O)CC1c1ccco1 (stereo unspecified) | i | 1.7% | 1.71
CC1(C)OC(=O)N(c2ccccc2)C12C=Cc1c(ccc3ccccc13)O2 (stereo unspecified) | i | 10.8% | .
CNC(=O)Nc1cccc(C(F)(F)F)c1 | i | -4.1% | -0.07
COC(=O)c1cc(Br)c(=O)n(CCN2CCCC2)c1 | i | 0.7% | .
COc1cc(NC(=O)Cc2cccs2)cc(OC)c1 | i | -1.5% | 0.94
CC1CN(C(=O)CCc2ccccc2)C(C)CN1C(=O)CCc1ccccc1 (stereo unspecified) | i | 4.6% | .
Cc1cnnn1-c1ccc(C(=O)CCl)cc1 | i | -0.2% | .
COc1cccc(C(=O)Nc2ccc(C(=O)O)cc2)c1 | i | -4.0% | 0.51
COc1cccc(NC(=O)CNC(=O)c2cccs2)c1 | i | 0.4% | -0.41

Continued; the last six above are carried over.
SMILES | MT1-MMP promoter | Hsc70 | WNV protease inh
COC(=O)c1cc(Br)c(=O)n(CCN2CCCC2)c1 | i | 0.7% | .
COc1cc(NC(=O)Cc2cccs2)cc(OC)c1 | i | -1.5% | 0.94
CC1CN(C(=O)CCc2ccccc2)C(C)CN1C(=O)CCc1ccccc1 (stereo unspecified) | i | 4.6% | .
Cc1cnnn1-c1ccc(C(=O)CCl)cc1 | i | -0.2% | .
COc1cccc(C(=O)Nc2ccc(C(=O)O)cc2)c1 | i | -4.0% | 0.51
COc1cccc(NC(=O)CNC(=O)c2cccs2)c1 | i | 0.4% | -0.41
O=C1C2CC=C(Cl)CC2C(=O)N1CC1OCCc2ccccc21 (stereo unspecified) | i | 0.6% | .
COC(=O)/C=C(\C)NC(=O)c1ccc(F)cc1 | i | -3.1% | .
CCCc1cc(=O)[nH]c(SCC(=O)N(C)CC(=O)Nc2ccccc2CC)n1 | i | -40.9% | -1.22
CCOC(=O)c1nn(-c2ccc(F)cc2)c2nc(CC(C)C)c(C#N)c(=O)n12 | i | -1.2% | .
O=C(Cn1cnc2ccccc2c1=O)OCC(=O)c1ccc2c(c1)OCCO2 | i | 0.1% | -1.07
Cc1cccc(N2C(=O)c3cccnc3C2=O)c1 | i | 2.7% | .
O=C(NCc1ccc(F)cc1)c1cc2sccc2n1Cc1ccc(F)cc1 | i | 2.3% | .
Cc1ccc(-c2nnc(SCC(=O)N3CC(C)CC(C)C3)o2)cc1C (stereo unspecified) | i | 0.1% | 0.35
O=C(c1cc2ccccc2o1)N1CCN(S(=O)(=O)c2cccs2)CC1 | i | 4.3% | .
Oc1ccc(CN2CCN(Cc3ccccc3)CC2)c2cccnc12 | i | 3.2% | 3.59
Cc1ccc(Cn2c(CN(C)Cc3ccccc3)nc3c2c(=O)n(C)c(=O)n3C)cc1 | i | 1.5% | -0.05
CC1Cc2nc(SCC(=O)N3CCCc4ccccc43)n(C)c(=O)c2S1 (stereo unspecified) | i | 2.4% | 0.55
Cc1noc(NS(=O)(=O)c2ccc(N/C=C/C(=O)c3ccncc3)cc2)c1C | i | 5.4% | .
COc1cc(CC(=O)OCC(=O)Nc2ccc(S(=O)(=O)N3CCCC3)cc2)cc(OC)c1OC | i | -3.6% | 1.12
N#Cc1cccc(-n2c(-c3ccccc3)nnc2-c2ccccc2)c1C#N | i | -5.2% | 0.62
COc1ccc(C(=O)Cn2nnc(-c3ccccc3F)n2)cc1 | i | 2.7% | 0.25
Cc1cnc(NC(=O)CSc2nnc(CNc3ccc(F)cc3)n2CC2CCCO2)s1 (stereo unspecified) | i | 4.1% | 1.94
c1ccc(Cn2c(NCc3ccco3)nc3ccccc32)cc1 | i | -2.7% | -0.32
Cc1ccc(C)c(OCCCN2CCCC2)c1 | i | -3.6% | -0.24
COc1ccc(NC(=O)C2CC(=O)N(C)C(=Nc3ccc4c(c3)OCO4)S2)cc1 (stereo unspecified) | i | 6.9% | 0.74
COc1ccccc1NC(=O)CSc1nc2sc(C)c(C)c2c(=O)n1Cc1ccco1 | i | -2.3% | 0.24
Cc1ccc(N(C(=O)c2ccc(Br)o2)C2C=CS(=O)(=O)C2)cc1 (stereo unspecified) | i | -2.9% | 0.17
CC1CCN(CCNC(=O)CN(C)S(=O)(=O)c2cccc3nsnc23)CC1 | i | -5.7% | 0.98
CCOC(=O)Oc1ccc2c(c1)C(C)=CC(C)(C)N2C(=O)OCC | i | 2.0% | -0.16
O=S(=O)(NC1c2cccc3cccc(c23)C1N1CCNCC1)c1ccccc1 (stereo unspecified) | i | 4.9% | -1.24

Structures listed so far that have fluorine:
SMILES | MT1-MMP promoter | Hsc70 | WNV protease inh
Cc1c(F)cccc1NC(=O)CCC(=O)O | i | 5.0% | -0.77
O=C(Cc1c(O)c2ccccc2[nH]c1=O)NCc1ccc(F)cc1 | i | 0.1% | 1.32
CNC(=O)Nc1cccc(C(F)(F)F)c1 | i | -4.1% | -0.07
COC(=O)/C=C(\C)NC(=O)c1ccc(F)cc1 | i | -3.1% | .
CCOC(=O)c1nn(-c2ccc(F)cc2)c2nc(CC(C)C)c(C#N)c(=O)n12 | i | -1.2% | .
O=C(NCc1ccc(F)cc1)c1cc2sccc2n1Cc1ccc(F)cc1 | i | 2.3% | .
COc1ccc(C(=O)Cn2nnc(-c3ccccc3F)n2)cc1 | i | 2.7% | 0.25
Cc1cnc(NC(=O)CSc2nnc(CNc3ccc(F)cc3)n2CC2CCCO2)s1 (stereo unspecified) | i | 4.1% | 1.94

(further entries)
SMILES | MT1-MMP promoter | Hsc70 | WNV protease inh
O=[N+]([O-])c1ccc(Sc2cccc3cccnc23)cc1 | i | -0.2% | .
Cc1c(C(=O)NCCN2CCOCC2)oc2ccccc12 | i | -0.5% | -0.74
CCc1ccc(NC(=O)CCN2C(=O)c3cccnc3C2=O)cc1 | i | -4.4% | 0.62
CCc1[nH]nc2c1C(c1cccc(OC(=O)N3CCOCC3)c1)C(C#N)=C(N)O2 (stereo unspecified) | i | 4.5% | 1.04
CCC(Sc1nc2cc3c(cc2c(=O)n1Cc1ccco1)OCO3)C(=O)NCCOC (stereo unspecified) | i | 3.7% | .
O=C1CCCC/C1=C\Nc1ccc(Cl)cn1 | i | -1.1% | -0.29
CC(=O)Nc1ccc(NC(=O)CSC2=NCCS2)cc1 | i | 1.4% | 0.18
Cc1cc2n(n1)SC(Nc1cccc3ccccc13)N2 (stereo unspecified) | i | -0.8% | .
CCOC(=O)/C=c1\sc2n(c1=O)CCN=2 | i | -0.5% | -0.55
COc1ccc(-c2nnc(NC(=O)C3CCCO3)s2)cc1 (stereo unspecified) | i | -3.1% | .
COc1cccc(C2C=C(c3ccc(OC)cc3OC)Nc3nnnn32)c1 (stereo unspecified) | i | 3.8% | -0.32
CCOC(=O)N1CCN(C(=O)Nc2ccc3nccnc3c2)CC1 | i | 0.3% | .
O=C(NCCN1CCN(c2cccc(Cl)c2)CC1)c1cccn2c(=O)c3ccccc3nc12 | i | 1.2% | 0.67
CCCOC(=S)Nc1ccccc1 | i | -5.0% | .
CC(C)Oc1ccc(C(=O)Nc2ccc(NC(=O)c3ccco3)c(Cl)c2)cc1 | i | -2.2% | .
O=C(Cn1nnc2c(cnn2-c2ccc(F)cc2)c1=O)c1ccccc1F | i | -3.7% | 0.76
CCCn1c(SCC(=O)OCc2ccccc2)nc2c1c(=O)n(C)c(=O)n2C | i | -3.7% | 0.38
O=C(Cn1cnc2c(nnn2Cc2ccc(F)cc2)c1=O)NCc1ccc2c(c1)OCO2 | i | -2.4% | -0.06
O=C(c1ccc2nc(N3CCOCC3)sc2c1)N1CCC2(CC1)OCCO2 | i | -4.0% | -1.96
CN1C=CC2=C(C#N)C(N)C(C#N)(C#N)C(c3ccccc3)C2C1 (stereo unspecified) | i | 51.2% | 0.23
COc1cc(OC)nc(NC(C)=O)n1 | i | -6.8% | .
Cc1cccc2cc3c(N)c(C(=O)N4CCOCC4)sc3nc12 | i | -13.3% | -0.87
CCN(CC)CCCN1C(=O)c2oc3ccccc3c(=O)c2C1c1cccc(OC)c1OC (stereo unspecified) | i | -4.1% | -0.92
COc1ccccc1C(=O)Nc1ccc(S(=O)(=O)Nc2cc(C)nc(C)n2)cc1 | i | 2.3% | .
COCc1n[nH]c(=S)n1-c1ccccc1 | i | -0.4% | .
Carrying on.
SMILES | MT1-MMP promoter | Hsc70 | WNV protease inh
COc1cccc(NC(=O)c2cnsn2)c1 | i | 0.3% | .
O=C(CSc1nc2cccnc2n1Cc1ccccc1)N1CCc2ccccc21 | i | -4.4% | .
N#Cc1c(N)sc2c1CCCCCC2 | i | -1.0% | 0.24
Cc1ccccc1CN1C(=O)C2(OCCCO2)c2ccccc21 | i | -0.3% | 0.32
C=C(C)COc1ccc(-c2nc(N)ncc2Oc2ccccc2OC)c(O)c1 | i | -3.1% | -0.33
O=C(Nc1ccccn1)C1(c2ccccc2)CCCC1 | i | -6.1% | -0.01
CCOC12NC(=O)CC(=O)N1C(c1ccccc1)=CS2 (stereo unspecified) | i | -0.5% | -0.28
COC(=O)/C(=C/Nc1cccc2ccccc12)[N+](=O)[O-] | i | -4.7% | .
COc1ccc(S(=O)(=O)n2nc(OC(=O)c3ccco3)cc2N)cc1 | i | 2.0% | -7.66*
CC1CCN(C(=O)c2ccc(N(C)S(C)(=O)=O)cc2)CC1 | i | 4.9% | -0.19
CCOC(=O)CSc1nnc(-c2ccoc2C)n1-c1ccc(OCC)cc1 | i | -2.5% | -0.33
CCOC(=O)c1c(C)n(C)c2ccc(O)c(CN(C)C)c12 | i | -1.6% | -0.3
N#Cc1cc(Oc2ccccc2)c(-n2nnc3ccccc32)cc1C#N | i | 0.1% | .
O=C(NCCCc1ccccc1)C1CC(=O)N(c2ccc3c(c2)OCCO3)C1 (stereo unspecified) | i | -1.7% | -1
CCN(c1ccccc1)c1cc(C)nc2nc(C)nn12 | i | 3.5% | 0.93
CCC(C)NC(=O)CS(=O)Cc1nc(-c2cccc(C)c2)oc1C (stereo unspecified) | i | 7.5% | -0.64
Cc1c(NC(=O)CN2C(=O)C3C4C=CC(C4)C3C2=O)c(=O)n(-c2ccccc2)n1C (stereo unspecified) | i | -9.9% | 3.17
O=C1NC2(CCCCC2)Oc2ccccc21 | i | -3.6% | -0.1
CCOCC(=O)Nc1sc2c(c1C(=O)OCC)CCCC2 | i | -3.4% | -0.44
CN(C1CCS(=O)(=O)C1)S(=O)(=O)c1cccc2nsnc12 (stereo unspecified) | i | -3.5% | -0.63
Cc1cc(C)nc(SCC(=O)N2CCCCC2)n1 | i | 2.3% | -0.46
CCNS(=O)(=O)c1ccc(NC(=O)c2ccccc2OCC)cc1 | i | -5.8% | 1.49
Cc1c(NS(=O)(=O)c2ccc(Br)s2)c(=O)n(-c2ccccc2)n1C | i | 0.1% | 0.71
COc1ccc(C2CC(C(F)(F)F)n3nc(C(=O)O)c(Br)c3N2)cc1 (stereo unspecified) | i | -0.4% | .
COC(=O)C(C#N)C(=C1C(=O)CC(C)(C)CC1=O)c1ccc(O)cc1 (stereo unspecified) | i | -2.6% | -0.38
Additional compounds:
SMILES | MT1-MMP promoter | Hsc70 | WNV protease inh
O=C(CC(SCCO)c1ccc2c(c1)OCO2)c1cccs1 (stereo unspecified) | i | 3.8% | -0.23
Cc1ccc(S(=O)(=O)c2cc3c(=O)n4ccccc4nc3n(C)c2=N)cc1 | i | 15.2% | -0.91
COc1ccc(NC(=O)C(c2ccc(C)cc2)N(C)C(=O)c2cnccn2)cc1 (stereo unspecified) | i | -3.3% | 0.83
COc1cccc(OC)c1OCCOCCn1cnc2ccccc2c1=O | i | 3.5% | -0.68
CCOC(=O)c1c(C)[nH]sc1=S | i | 5.0% | 0.18
COc1ccc2nc(SCC(=O)Nc3ccccc3C)[nH]c2c1 | i | 0.8% | .
